Screens: PubChem, National Center for Advancing Translational Sciences (NCATS)
VDR inhibitor: inhibitors of human vitamin D receptor. P11473. VDR-SRC2-3 peptide fluorescence polarization, 2 h. Potency, µM, for inactives: max response, negative = inhibition, usual class: inhibitors. 0.93% of 400,000 active. AID 504847; active = well fitted inhibition curve with a large enough effect; inconclusive = small, poorly fitted or top-dose-only effect, or another doubt; inactive = no such curve, though single readings can be large or run the other way; also: series mostly up to about 120 µM
Target sequence (P11473 whole entry, looked up): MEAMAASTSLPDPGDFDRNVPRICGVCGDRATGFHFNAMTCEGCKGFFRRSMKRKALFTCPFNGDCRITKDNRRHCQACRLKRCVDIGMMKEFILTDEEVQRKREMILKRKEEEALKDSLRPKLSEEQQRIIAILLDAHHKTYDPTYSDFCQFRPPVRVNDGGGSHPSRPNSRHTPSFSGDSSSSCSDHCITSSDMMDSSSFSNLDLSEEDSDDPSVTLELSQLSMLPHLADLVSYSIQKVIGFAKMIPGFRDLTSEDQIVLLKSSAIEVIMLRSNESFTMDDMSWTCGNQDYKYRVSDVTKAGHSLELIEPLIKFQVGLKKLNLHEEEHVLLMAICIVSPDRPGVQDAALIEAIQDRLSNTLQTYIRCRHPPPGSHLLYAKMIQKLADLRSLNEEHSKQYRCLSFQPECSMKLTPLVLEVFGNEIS
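Compounds are added to VDR with labelled SRC2-3 coactivator peptide and held 2 h at room temperature. Inhibition of the VDR–peptide interaction is then read as a change in fluorescence polarization.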
* marks the source's active call; other numbers are inactive results; ? = inconclusive; & = joins results of further samples. % is scaled to controls: 0 for no effect and ±100 for the full control effect; potency is read from the fitted curve at half-maximal effect. A portion of the library. The share of hits here may be higher or lower than overall.

#	SMILES	VDR inhibitor
1	O=C(NCC(c1ccc(F)cc1)N1CCOCC1)c1ccc([N+](=O)[O-])o1 (stereo not drawn)	2%
2	Cc1ccc(C(=O)c2cc([N+](=O)[O-])ccc2N2CCCCC2)cc1C	2%
3	CC1CCCN(CCOc2ccc3ccccc3c2Br)C1 (stereo not drawn)	-8%
4	Cc1ccccc1N=C1SC(CC(=O)Nc2ccc3ccccc3c2)C(=O)N1Cc1ccccn1 (stereo not drawn)	-13%
5	CCCC(=O)Nc1ccc2c(c1)C(=O)NC2=O	2%
6	CCCCSc1nnc2n(-c3cccc(C)c3)c(=O)c3c4c(sc3n12)CCCC4	-11%
7	CCCOC1CCCN(C(=O)CCc2nnc(CCCCc3ccccc3)o2)C1 (stereo not drawn)	15%
8	Cc1ccc(S(=O)(=O)C2C(=O)N(C)C3(C)CC2c2ccccc2O3)cc1 (stereo not drawn)	-1%
9	O=C(Cn1c(=O)n(CCc2ccccc2)c(=O)c2cccnc21)Nc1ccc(F)cc1	-5%
10	Cc1cccc(C)c1C(OCCN(C)C)C1CCCCC1 (stereo not drawn)	-2%
11	O=[N+]([O-])c1ccc(SCc2ccco2)cc1N1CCOCC1	3%
12	Cc1cc(C)cc(C(=O)NC(CC(N)=O)c2ccc(N3CCCCCC3)c([N+](=O)[O-])c2)c1 (stereo not drawn)	-2%
13	Cc1c(N2C(=O)C3C4C=CC(C5CC45)C3C2=O)c(=O)n(-c2ccccc2)n1C (stereo not drawn)	7%
14	O=C(CN(c1ccc(Br)cc1)S(=O)(=O)c1ccc(Cl)c([N+](=O)[O-])c1)NCCc1ccccc1	11%
15	CCOc1ccc(S(=O)(=O)N2CCC(C(=O)NCCN3CCOCC3)CC2)cc1C	-9%
16	CCCc1cc(C(=O)NNC(=S)NCc2ccccc2)cs1	1%
17	CN(C)CCCNCCCNC(=O)/C(=N\O)c1ccccc1	-8%
18	Cc1c(Cl)cccc1N(CC(=O)O)S(C)(=O)=O	8%
19	O=C(O)C1CC=CC2CCN(C3CCCCC3)C(=O)C21 (stereo not drawn)	-16%
20	O=C1CCCN1c1nccs1	0%

Reprinted from the part before: 2 entries, followed by the next part.
#	SMILES	VDR inhibitor
19	O=C(O)C1CC=CC2CCN(C3CCCCC3)C(=O)C21 (stereo not drawn)	-16%
20	O=C1CCCN1c1nccs1	0%
21	Cc1cc(C(=O)NCc2cccs2)n(-c2ccccc2)n1	5%
22	COc1cc(OC)cc(C(=O)Nn2cc(C(=O)N3CCN(C)CC3)c3ccccc3c2=O)c1	-16%
23	FC(F)(F)c1cc(-c2cccs2)nc2cc(-c3cccs3)nn12	-9%
24	CCN(CC)CCCCCC(=O)Nc1ccccc1C(=O)Nc1ccccc1	4%
25	COCCNC(=O)CSc1nc2cc3c(cc2c(=O)n1CCCCCC(=O)NCCc1ccc(OC)c(OC)c1)OCO3	-4%
26	CCOc1ccc(C(C(=O)NCC2CCCO2)N(Cc2cccc(OC)c2)C(=O)c2snc(C(N)=O)c2N)cc1 (stereo not drawn)	3%
27	CC(C)(C)c1nnc2sc(SCC(=O)c3cccs3)nn2c1=O	3%
28	CN(CC(=O)Nc1c(Cl)cccc1Cl)C(=O)C1CCN(C(=O)Nc2ccccc2)CC1	-11%
29	CC(=O)Nc1cccc(NC(=O)CSc2nc3c(c(=O)n(C)c(=O)n3C)n2C)c1	5%
30	O=C(NNC(=S)Nc1ccc(F)c(Cl)c1)C1CC1	-7%
31	Cc1nc2nc(C)c(CCC(=O)N3CCN(c4ccccn4)CC3)c(C)n2n1	5%
32	O=C(C[C@@H]1C/C=C\CC[C@@H](Cc2ccc(F)cc2)C(=O)OC[C@@H](Cc2ccccc2)NC1=O)NCCO	-3%
33	COc1ccc(C2=NOC(C(=O)N3CCN(c4ccccc4OC)CC3)C2)cc1 (stereo not drawn)	9%
34	O=C(C[C@@H]1C/C=C\CC[C@H](Cc2ccc(F)cc2)C(=O)OC[C@@H](Cc2ccccc2)NC1=O)NCCO	-21%
35	COc1ccc(OCCCC(=O)NC(C)c2ccccc2)cc1 (stereo not drawn)	2%
36	Cc1cc(-c2nnc(SCC(=O)Nc3ccc(C)c(C)c3)n2N)n[nH]1	4%
37	O=C(Nc1nc2ccccc2s1)c1cc(-c2ccco2)nc2ccccc12	?
38	CCC(CC)C(=O)N1c2ccc(F)cc2CCC1C (stereo not drawn)	-5%
39	O=C(Nc1ccccc1C(=O)N1CCCC1)C1COc2ccccc2O1 (stereo not drawn)	-20%
40	CCCCC(CC)C(=O)Nc1cc([N+](=O)[O-])ccc1F (stereo not drawn)	13%

Grouped by structure: the compounds so far containing an aryl thioether with sulfur outside any ring
#	SMILES	VDR inhibitor
6	CCCCSc1nnc2n(-c3cccc(C)c3)c(=O)c3c4c(sc3n12)CCCC4	-11%
11	O=[N+]([O-])c1ccc(SCc2ccco2)cc1N1CCOCC1	3%
25	COCCNC(=O)CSc1nc2cc3c(cc2c(=O)n1CCCCCC(=O)NCCc1ccc(OC)c(OC)c1)OCO3	-4%
27	CC(C)(C)c1nnc2sc(SCC(=O)c3cccs3)nn2c1=O	3%
29	CC(=O)Nc1cccc(NC(=O)CSc2nc3c(c(=O)n(C)c(=O)n3C)n2C)c1	5%
36	Cc1cc(-c2nnc(SCC(=O)Nc3ccc(C)c(C)c3)n2N)n[nH]1	4%

The listing continues:
#	SMILES	VDR inhibitor
41	CC1CC2=C(NC(=S)NC2c2ccc(F)cc2)/C(=C/c2ccc(F)cc2)C1 (stereo not drawn)	?
42	C[C@@H]1C(=O)N(S(=O)(=O)c2ccccc2[N+](=O)[O-])[C@H]1c1ccc(-c2ccccc2)cc1	-20%
43	Cc1cccc(N2Cc3ccc(Br)cc3C2)c1	-5%
44	CCN(CC)S(=O)(=O)c1cc(NC(=O)C2=COCCO2)ccc1Cl	-10%
45	C/C=C(\C)C(=O)NCCN1C2=NC[C@@H](C)N2C[C@@H]1Cc1ccc(OC)cc1	-2%
46	NC(=O)c1c(NC(=O)CSc2nc(N)cc(=O)[nH]2)sc2c1CCCC2	-23%
47	C/C(CC1(O)/C(=N/O)CCc2nonc21)=N\O (stereo not drawn)	-5%
48	COCCNC(=O)Cc1c(C)c2c(cc(C)c3c(C(C)(C)C)coc32)oc1=O	-5%
49	CCc1ccc2c(c1)NC(c1ccc(C)cc1)=NC(c1cccs1)=N2	-1%
50	CC(=O)Nc1cccc2ncccc12	-18%
51	C/C(CC(=O)Nc1ccccc1[N+](=O)[O-])=N\NC(=O)COc1ccccc1C	10%
52	Cc1ccccc1CNC(=O)CCCn1nc(C)c2sc3ccccc3c2c1=O	17%
53	Cc1ccccc1OCC(=O)N/N=C/c1cccc(Oc2ccc([N+](=O)[O-])cc2[N+](=O)[O-])c1	-3%
54	COc1ccc(CNC(=O)Cn2ncc3c(=O)oc4ccc(C)cc4c32)c(OC)c1	3%
55	COc1cc(OC)cc(C(=O)NCC(=O)OCC(=O)Nc2ccc(C)c(S(=O)(=O)N3CCOCC3)c2)c1	26%
56	C/C(=N\Nc1ccc(S(N)(=O)=O)cc1[N+](=O)[O-])c1ccc2c(c1)OCO2	-2%
57	O=C(c1c[nH]c(C(=O)C(Cl)(Cl)Cl)c1)c1c(F)cccc1F	?
58	CC1(C)CC(=O)C=C(Nc2ccc3c(c2)CCC3)C1	9%
59	Clc1cccc(Cl)c1Cn1nnc(N2CCCC2)n1	-4%
60	COc1cc(/C=C2\SC(N)=NC2=O)cc(OC)c1	?
61	Cc1cc(C)c2oc(C(=O)Nc3ccc(S(=O)(=O)Nc4nccc(C)n4)cc3)cc(=O)c2c1	-15%&-6%
62	CC1=C(C(=O)OCc2cc(C)on2)N2C(=O)[C@@H](NC(=O)OCc3cc(C)on3)[C@H]2SC1	-19%
63	Cc1ccc(CNC(=O)COC(=O)C2CCN(S(=O)(=O)c3cccs3)CC2)cc1	-1%
64	CC1=C(C(=O)Nc2ccc(C)cc2)C(c2ccco2)NC(=O)N1 (stereo not drawn)	-1%
65	CC[n+]1c(/C=C(\C)OC)sc2ccccc21	13%
66	COc1ccc(C(C)=O)cc1CC(=O)NC1CCCCCC1	15%
67	COc1ccccc1NC(=O)NCc1ccco1	8%
68	COc1ccc(-n2nnc(-c3nsc(NC(=O)c4cccs4)n3)c2C)cc1OC	12%
69	O=C(OCCCN=C1NS(=O)(=O)c2ccccc21)c1ccccc1	-5%
70	O=C(Cc1ccccc1[N+](=O)[O-])NCc1ccc2c(c1)OCO2	17%
71	CCCCCO	-4%
72	CS(=O)(=O)N(CC(=O)N1CCN(c2ccccc2F)CC1)C1CCCCC1	12%
73	FC(F)(F)c1cccc(Oc2nc(-c3ccccc3)nnc2C(F)(F)F)c1	?
74	CCOC(=O)c1c(NC(=O)CCC(=O)N2CCOCC2)sc2c1CC(C)(C)OC2	6%
75	CCc1ccc(CN(Cc2ccco2)c2cnc(S(C)(=O)=O)nc2C(=O)Nc2cccc(C)c2)cc1	3%
76	Cc1nn(-c2ccccc2)c(Cl)c1C1C(C#N)=C(N)OC2=C1C(=O)CCC2 (stereo not drawn)	1%
77	c1ccc2nc3[nH]cnc3nc2c1	8%
78	COC(=O)Cn1cnc2c1c(=O)n(C)c(=O)n2C	2%
79	CCN1CCN(C(=O)c2ccc(CN(c3ccccc3)S(=O)(=O)c3ccccc3)cc2)CC1	-7%
80	CN(Cc1ccccc1)C(=O)c1cccc(NC(=O)Cc2ccc(NC(=O)C3CCCN(C(=O)C4CCCC4)C3)cc2)c1 (stereo not drawn)	-16%

Taken from above.
compound 75 in VDR inhibitor has 3%
compound 80 in VDR inhibitor has -16%

Further records:
#	SMILES	VDR inhibitor
81	O=C(/C(C=Nc1cccc(C(F)(F)F)c1)=C(/O)c1ccco1)C(F)(F)F	-11%
82	Cc1c(/C=N/NC(=O)c2cc(Br)ccc2O)c(=O)n(C)c(=O)n1C	16%
83	CC1=C(C(=O)N2CCN(c3cccc(C)c3C)CC2)C2(CCCCC2)OC1=O	4%
84	COc1cc(NC(=O)CSc2nnc3c(C)cc4c(C)ccc(C)c4n23)c(C(=O)O)cc1OC	1%
85	CCOc1cc(CNCCc2ccccc2)ccc1OCC(=O)NC(C)(C)C	?
86	COc1ccccc1C(=O)Nc1nsc(-c2ccccc2)n1	9%
87	O=C(Cn1cc(S(=O)(=O)Cc2ccc([N+](=O)[O-])cc2)c2ccccc21)N1CCOCC1	5%
88	O=c1c2cc(N3CCOCC3)ccc2[nH]c(=S)n1CCc1ccccc1	0%
89	CC1CC(=O)Nc2ccccc2N1C(=O)CSc1nnnn1C(C)C (stereo not drawn)	?
90	CS(=O)(=O)N1CCN(C(=O)COc2ccc3ccccc3c2)CC1	3%
91	COc1ccc(NC(=O)NCc2ccco2)c(OC)c1	?
92	COc1ccc(-c2cnn3c(N)c(S(=O)(=O)C(C)(C)C)cnc23)cc1	-10%
93	COC(=O)C(NC(=O)C(NC(=O)c1ccccc1)C(C)C)C(C)C (stereo not drawn)	-1%
94	O=C1CN(C(=O)c2ccc(S(=O)(=O)N3CCCC3)cc2)C(c2ccccc2)c2cc(F)ccc2N1 (stereo not drawn)	-13%
95	CSc1ccccc1NC(=S)NCc1ccc(Cl)cc1	-12%
96	NC(=O)CC(NC(=O)c1ccc(Br)cc1)c1ccc(N2CCCCCC2)c([N+](=O)[O-])c1 (stereo not drawn)	15%
97	Cc1[nH]c(=O)nc2c1CCC2	-3%
98	CCOc1cc(C2C3=C(CC(C)(C)CC3=O)N(CCCOC)C3=C2C(=O)CC(C)(C)C3)ccc1OC	-19%
99	CCn1nnnc1NC(=O)c1cc(Cl)c(OC)c(Cl)c1	6%
100	CCN(CC)C(=O)CN(c1ccc(F)c(Cl)c1)S(C)(=O)=O	-11%
101	Cc1ccc(S(=O)(=O)Nc2ccc3c(c2)CCCN3C(=O)c2cccs2)cc1	4%
102	COc1ccc(Cl)cc1NS(=O)(=O)c1cccc(C(=O)NC2CCC(O)CC2)c1 (stereo not drawn)	1%
103	COC(=O)c1cc(Br)c(=O)n(CCN2CCCCC2)c1	-16%
104	Cc1ccc(-n2ncc(C(=O)NCCN3CCc4ccccc4C3)c2C2CCN(C(=O)OC(C)(C)C)CC2)cc1	6%
105	CCNC(=O)NC(=O)C(C)Oc1ccc(Br)cc1Br (stereo not drawn)	11%
106	C=CCOc1c(Cl)cc(CNc2ccc(N(C)C)cc2)cc1OC	2.2µM*
107	CC[C@@]1(C(=O)OC)N[C@H](CN(C)S(=O)(=O)c2ccc(OC)cc2)[C@@H]2C(=O)N(C)C(=O)[C@@H]21	-16%
108	COc1ccc(N(CC(=O)NC(C)c2ccccc2)S(=O)(=O)c2c(C)noc2C)cc1 (stereo not drawn)	27%&-30%
109	CCOC(=O)N1CCN(CC(O)COCc2ccccc2)CC1 (stereo not drawn)	1%
110	CCCSc1ncc(Cl)c(C(=O)NCc2ccc(OC)cc2)n1	3%
111	Cc1cnc(C(=O)Nc2ccccc2F)cn1	0%
112	COc1ccc(Oc2ncc3ncc(=O)n(CCc4ccccc4)c3n2)cc1	-2%
113	Cc1ccc(OCc2nc3ccccc3[nH]2)cc1	4%
114	Cc1cc(=O)oc2cc(NC(=O)Cc3ccccc3)ccc12	21%
115	CSc1ccc2[nH]c(=O)cc(C)c2c1	10%
116	COc1cc(CNC2CCCCCC2)cc(OC)c1O	8%
117	Nc1ncc(S(=O)(=O)Nc2ccc(OC(F)(F)F)cc2)cn1	6%
118	O=C(OC(C(=O)Nc1cccc(C(F)(F)F)c1)c1ccccc1)C1CCCCC1 (stereo not drawn)	-7%
119	CN1CCN(c2ncc3nc(CCc4ccccc4)c(=O)n(CCC#N)c3n2)CC1	-4%
120	CCCOc1ccc(C(CC(=O)O)NC(=O)c2cccs2)cc1 (stereo not drawn)	-2%
121	Cc1ccc(S(=O)(=O)N2CCOCC2)c2nsnc12	-23%
